Sa growth inh: blocks Staphylococcus aureus growth. actives 0.53% (n = 170,000). S. aureus RN4220 growth, OD600, 20 h, 42 °C; hits give low values. relative growth, % (concentration not given with the values). AID 720641;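 active = growth at 42 °C up to 50% and 20 or more points under that at 30 °C, or under 10% at both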;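 note: 300 nL library stock went into each well; scaled to the means of positive and negative controls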
HCMV NEC inh: cytomegalovirus nuclear egress complex inhibition | HTRF UL50-UL53 interaction, normalized percent inhibition | inhibition, % (test concentration not listed) | actives 0.15% (n = 190,000);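 active = both replicates at 50% or more, plus weaker picks with an unusually low signal ratio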;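 note: stock transfer was 100 nL into about 20 µL; 0% = negative control wells and 100% = wells with untagged competitor protein; inactives centre near -12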
GIV-Gai inh: inhibitors of GIV GBA-motif binding to rat Galpha-i3; P08753; Galpha-i3/FITC-GIV peptide fluorescence polarization, 90 min; hits give low values; scaled: aluminum fluoride 0%, vehicle 100%; percent of control (FP), % (no concentration beside the values); actives 0.42% (n = 210,000); AID 1224905;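 active = replicate mean at 85% of control or lower, very high polarization wells dropped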;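 note: wells of about 15 µL received 100 nL stock; the first replicate is given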
Target sequence (P08753 whole entry, looked up): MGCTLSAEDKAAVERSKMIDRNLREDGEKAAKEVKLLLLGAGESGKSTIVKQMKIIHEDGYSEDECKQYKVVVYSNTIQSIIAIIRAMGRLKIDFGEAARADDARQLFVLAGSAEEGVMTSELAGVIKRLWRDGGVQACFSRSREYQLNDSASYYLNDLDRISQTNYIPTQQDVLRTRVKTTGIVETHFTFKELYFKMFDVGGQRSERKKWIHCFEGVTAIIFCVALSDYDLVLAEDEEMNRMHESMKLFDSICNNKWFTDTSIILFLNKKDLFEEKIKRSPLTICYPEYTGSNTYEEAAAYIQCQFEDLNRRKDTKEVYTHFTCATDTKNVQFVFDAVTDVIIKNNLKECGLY
Sa growth inh second temp: also measured in Sa growth inh; calls as there; relative growth, %; measured here: growth at 30 °C;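 optical density after 20 h as mean of two plates; 100% = untreated growth and lower means inhibition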
An asterisk follows results filed as active; / = not tested or not shown; & = joins results of further samples.

Sample of the layout:
Field names: A = Sa growth inh; B = Sa growth inh second temp; C = HCMV NEC inh; D = GIV-Gai inh
Cc1cc2c(cc1C)NC(CC(=O)Nc1ccccc1C)C(=O)N2 (stereo unspecified)
  A = 87; B = 95; C = -2; D = /
CCCc1cc(C(=O)OC)c(NC(=O)CCCC(=O)O)s1
  A = 79; B = 58; C = /; D = 97
Cc1sc(-c2noc(C3CCC3)n2)cc1NC(=O)CN1C(=O)COc2ccc(Cl)cc21
  A = /; B = /; C = 1; D = 110
Cc1cc(C)c(NC(=O)CSC2=Nc3ccccc3C3=NC(CC(=O)NCc4cccs4)C(=O)N23)c(C)c1 (stereo unspecified)
  A = 96; B = 63; C = -16; D = 101
COc1ccc(Nc2ncnc3c2cnn3-c2ccc(C)cc2C)cc1
  A = 97; B = 87; C = /; D = 99
NC(=O)NC(=O)COc1ccccc1Br
  A = 89; B = 90; C = -9; D = /
CCOC(=O)N1CCN(c2ccc(S(=O)(=O)C(C)(C)C)nn2)CC1
  A = /; B = /; C = -31; D = 102

The listing (from the top)
Field names: A = Sa growth inh; B = Sa growth inh second temp; C = HCMV NEC inh; D = GIV-Gai inh
Cc1cc2c(cc1C)NC(CC(=O)Nc1ccccc1C)C(=O)N2 (stereo unspecified)
  A = 87; B = 95; C = -2; D = /
CCCc1cc(C(=O)OC)c(NC(=O)CCCC(=O)O)s1
  A = 79; B = 58; C = /; D = 97
Cc1sc(-c2noc(C3CCC3)n2)cc1NC(=O)CN1C(=O)COc2ccc(Cl)cc21
  A = /; B = /; C = 1; D = 110
Cc1cc(C)c(NC(=O)CSC2=Nc3ccccc3C3=NC(CC(=O)NCc4cccs4)C(=O)N23)c(C)c1 (stereo unspecified)
  A = 96; B = 63; C = -16; D = 101
COc1ccc(Nc2ncnc3c2cnn3-c2ccc(C)cc2C)cc1
  A = 97; B = 87; C = /; D = 99
NC(=O)NC(=O)COc1ccccc1Br
  A = 89; B = 90; C = -9; D = /
CCOC(=O)N1CCN(c2ccc(S(=O)(=O)C(C)(C)C)nn2)CC1
  A = /; B = /; C = -31; D = 102
Cc1[nH]n(CCC#N)c(=O)c1C1=NCCCCC1
  A = 95; B = 95; C = -30; D = /
CCCOC(=O)C1=C(C)NC2=C(C(=O)CC(c3ccc(OC)cc3)C2)C1c1cc(Br)c(O)c(OC)c1 (stereo unspecified)
  A = /; B = /; C = -13; D = 100
COc1cccc(C2=NS(=O)(=O)N(C)C(C(=O)N(C)C3CCCCC3)=C2)c1
  A = 100; B = 80; C = -59; D = 104
O=C1NC(NS(=O)(=O)c2ccccc2)(C(F)(F)F)C(=O)N1CCc1ccccc1 (stereo unspecified)
  A = 107; B = 97; C = -12; D = 98
CCNc1sc(S(=O)(=O)CC)nc1S(=O)(=O)c1ccc(C)cc1
  A = 99; B = 79; C = /; D = 99
CCc1cccc2c(CCNC(=O)COc3ccc(F)cc3F)c(C)[nH]c12
  A = 106; B = 108; C = -1; D = /
Cc1nc2c(c(Nc3cccc(Cl)c3)n1)CCC2
  A = /; B = /; C = -18; D = 99
CCN(CC)C(=O)c1nn(C)c(=O)c2ccccc12
  A = 104; B = 87; C = -20; D = /
O=C(CCC1Nc2c3ccccc3nc(=S)n2C1=O)N1CCN(c2ccccc2)CC1 (stereo unspecified)
  A = 116; B = 90; C = /; D = 99
Cc1c(-c2nn3c(Cc4ccccc4)nnc3s2)nnn1-c1ccc(Cl)cc1
  A = /; B = /; C = 0; D = 99
COc1ccc(C2CC(=O)N(c3ccc(OC)cc3)C(=O)C2)cc1
  A = /; B = /; C = -18; D = 98
CCOC(=O)c1nnn2c1nc(Sc1nnc(-c3ccncc3)o1)c1ccccc12
  A = 95; B = 86; C = -13; D = 104
COC(=O)c1ccc(Oc2nc(C)cc(N)n2)cc1
  A = 112; B = 99; C = -7; D = 102
CCSC1=NCCN1C(=O)c1cccc(C(F)(F)F)c1
  A = 90; B = 94; C = -15; D = 105
O=C(/C=C\c1ccco1)Nc1c2c(nn1-c1ccc(Cl)cc1)CSC2
  A = 90; B = 55; C = -15; D = 106
CCOC(=O)c1cnc(SCc2cccc(C(F)(F)F)c2)nc1N
  A = 89; B = 89; C = -20; D = 100
CN(C)C(CNC(=O)Nc1cccc(Cl)c1)c1cccnc1 (stereo unspecified)
  A = 82; B = 89; C = /; D = 103
CC(C)(C)C(=O)CSc1ncnc2nc[nH]c12
  A = 81; B = 70; C = -15; D = /
Cc1nc2nc(SCC(=O)NC(C)c3ccccc3)nn2c(C)c1Cc1c(F)cccc1Cl (stereo unspecified)
  A = 88; B = 87; C = 6; D = 102
O=C1c2ccccc2C2CC(c3ccc(Cl)cc3)=NN12 (stereo unspecified)
  A = 92; B = 80; C = -54; D = 103
CCOC(=O)c1c(C)nc2c(c1-c1cccnc1)C(=O)c1ccccc1-2
  A = 91; B = 49; C = 46; D = 105
O=C(NCc1ccccn1)c1cccc(NC(=O)N2CCCCc3ccccc32)c1
  A = /; B = /; C = 9; D = 108
Cc1ccc(-c2ccc(=O)n(Cc3ccc(F)cc3)n2)cc1
  A = 100; B = 88; C = -37; D = 99
O=C(c1ccc(S(=O)(=O)N2CCOCC2)cc1)N1CCN=C1SCc1c(F)cccc1Cl
  A = 98; B = 79; C = /; D = 101
Cc1ccc2c(c1)c1nc3ccccc3nc1n2C(C)C
  A = 112; B = 84; C = /; D = 94
COc1ccc(C2=Nn3c(nc4sc(C(=O)Nc5cccc(C)c5)c(C)c4c3=O)SC2)cc1
  A = 113; B = 89; C = 6; D = 103
CCOc1ccc(N2CC(NC(=O)C3CCCC3)CC2=O)cc1 (stereo unspecified)
  A = 96; B = 87; C = /; D = 95&95
O=C(OC1CCOC1=O)c1cc(-c2ccco2)nc2ccccc12 (stereo unspecified)
  A = 92; B = 67; C = -40; D = /
O=C(NC1CCN(Cc2ccccc2)CC1)C1CCN(c2ccc(-c3ccccc3)nn2)CC1
  A = /; B = /; C = 29*; D = 106
COC(=O)CSc1nccc(-c2ccc3c(c2)CCC(C)(C)O3)n1
  A = 116; B = 93; C = 2; D = 113
O=C(CCc1c[nH]c2ccccc12)OCc1c(Cl)cccc1Cl
  A = 105; B = 93; C = /; D = 101
Cc1ccc(-c2noc(CCC(=O)NCC3CCN(Cc4cccc(C)c4)CC3)n2)cc1
  A = 112; B = 95; C = 8; D = 111
O=C(NCc1ccco1)c1cnn2ccccc12
  A = 115; B = 97; C = 7; D = 114
CCOC(=O)c1ncoc1-c1ccc(OC)cc1
  A = 110; B = 78; C = -4; D = 101
CCSc1nnc(-c2cccs2)n1Cc1ccccc1
  A = 91; B = 86; C = -22; D = /
CCOC(=O)c1c(C)n(C)c2ccc(OCC(O)CN3CCCCCC3)cc12 (stereo unspecified)
  A = 98; B = 83; C = -17; D = 102
Cc1cc2cc(CN(Cc3ccccc3)C(=O)N(C)C)c3nnnn3c2cc1C
  A = 105; B = 92; C = -14; D = 101
O=C(COC(=O)C1CC2C=CC1C2)Nc1cccc(C(F)(F)F)c1 (stereo unspecified)
  A = 102; B = 99; C = 4; D = /
Cc1nn(-c2ccc(F)cc2)c(Cl)c1C=Nc1cccc(C#N)c1
  A = 113; B = 85; C = -32; D = /
COc1ccccc1CNC(=O)C1CCN(S(=O)(=O)c2cn(C)cn2)CC1
  A = 104; B = 96; C = /; D = 99
CC1(C)CC(N(CCCO)C(=O)c2ccccc2)CCO1 (stereo unspecified)
  A = 105; B = 89; C = -6; D = 94
Cc1cccnc1Nc1nc(-c2cccnc2)cs1
  A = 48; B = 47; C = -19; D = 103
O=C(COc1ccc(Cl)cc1Cl)NCCO
  A = 100; B = 91; C = /; D = 105

Only GIV-Gai inh, for some of the entries so far:
smiles	GIV-Gai inh
COc1ccccc1CNC(=O)C1CCN(S(=O)(=O)c2cn(C)cn2)CC1	99
CC1(C)CC(N(CCCO)C(=O)c2ccccc2)CCO1 (stereo unspecified)	94

The list goes on.
Field names: A = Sa growth inh; B = Sa growth inh second temp; C = HCMV NEC inh; D = GIV-Gai inh
O=C(CCS(=O)(=O)c1cccs1)Nc1ccc(C(=O)Nc2cccc(Cl)c2)cc1
  A = 110; B = 96; C = -5; D = 108
COc1ccccc1NC(=O)Cc1noc(CSc2cccc[n+]2[O-])n1
  A = 93; B = 83; C = -9; D = /
CCCCN(CC)C(=O)C1CCCN(c2ccc(-c3ccc(C)cc3)nn2)C1 (stereo unspecified)
  A = /; B = /; C = -57; D = 101
COc1ccc(NC(=O)C2CCN(S(=O)(=O)c3cn(C)cn3)CC2)cc1
  A = /; B = /; C = -23; D = 105
CCN1CCN(c2csc3ccc(F)cc3c2=O)CC1
  A = 103; B = 83; C = /; D = 108
CCN=C1SC(CC(=O)Nc2ccc(F)cc2)C(=O)N1CC (stereo unspecified)
  A = /; B = /; C = -18; D = 100
COc1ccc(CNC(=O)C2CCN(S(=O)(=O)c3c(C)noc3/C=C/c3cccs3)CC2)cc1
  A = 104; B = 90; C = -20; D = 108
CCOC(=O)c1c(C)oc2nc(COc3cc(Cl)ccc3Cl)nc(N)c12
  A = 115; B = 87; C = -5; D = /
Cc1cc(OCC(O)CNC(C)(C)C)ccc1C(C)C (stereo unspecified)
  A = 123; B = 90; C = -16; D = /
Cn1c(NCc2ccccc2)nc2ccccc21
  A = 105; B = 65; C = -6; D = /
O=C(CCc1nc2ccccc2[nH]1)NCc1ccc(F)cc1Cl
  A = 101; B = 68; C = /; D = 105
CSc1ccccc1NC(=O)c1cc(-c2ccccc2)on1
  A = 115; B = 93; C = -16; D = 104
CCOC(=O)c1ccc(NC(=O)c2c(NCc3ccc(OC)c(OC)c3OC)sc3c2CCC(C)C3)cc1 (stereo unspecified)
  A = 85; B = 97; C = /; D = 102
COc1ccc(C2=NN(S(=O)(=O)c3ccc(C)cc3)C(c3ccccc3)C2)cc1 (stereo unspecified)
  A = /; B = /; C = 1; D = 109
Cc1nnc(NC(=O)c2ccccc2NC(=O)c2ccccc2)s1
  A = 89; B = 55; C = -12; D = 103
Cc1ccc2oc(=O)c3cc(C(=O)Nc4cnc5ccccc5c4)sc3c2c1
  A = /; B = /; C = -10; D = 99
N#CC1=C(N)Oc2n[nH]c(-c3ccc([N+](=O)[O-])cc3)c2C1c1c(F)cccc1Cl (stereo unspecified)
  A = /; B = /; C = 16; D = 112
COc1ccc(OC)c(S(=O)(=O)NCCc2sc(-c3ccc(OC)c(OC)c3)nc2C)c1
  A = 99; B = 88; C = /; D = 99
COc1ccccc1C(=O)Nc1nc2nc(-c3ccccc3)cc(=O)n2[nH]1
  A = 98; B = 93; C = -4; D = 100
CC1(C)OCC(C(O)C(O)C2COC(C)(C)O2)O1 (stereo unspecified)
  A = 99; B = 87; C = -17; D = 92
CCOC(=O)c1c(C)oc2nc(C)nc(NCC3CCN(Cc4ccccc4C)CC3)c12
  A = 121; B = 98; C = /; D = 112
O=C(O)c1ccccc1SCC1CCCO1 (stereo unspecified)
  A = 104; B = 92; C = -19; D = /
Cc1ccc2[nH]cc(CCNC(=O)CSCc3nnc(C(=O)Nc4ccccc4)s3)c2c1
  A = /; B = /; C = -39; D = 105
N#CCc1ccc(OC(=O)c2cnccc2C(F)(F)F)cc1
  A = 112; B = 95; C = -2; D = 104
Cc1cc2ccccc2n1CCNC(=O)c1ccc(Br)cc1
  A = 128; B = 86; C = 0; D = 105
O=c1[nH]c2ccc(S(=O)(=O)NCc3ccccc3)cc2[nH]1
  A = 113; B = 85; C = 2; D = 102
C=CCOc1cccc(NC(=O)Nc2ccccc2)c1
  A = 67; B = 90; C = -36; D = 103
O=C(Nc1cccc(-c2nc3ccccc3o2)c1)C(F)(F)F
  A = 94; B = 82; C = -56; D = 70*
O=C(Nc1cccnc1)C1CCN(S(=O)(=O)Cc2ccccc2)CC1
  A = /; B = /; C = -28; D = 108
O=C(CCCCCn1c(=O)[nH]c2ccccc2c1=O)NCc1ccccc1
  A = 103; B = 85; C = /; D = 99
O=C(O)C1C2C=CC(C2)C1C(=O)Nc1ccc(Cl)cc1 (stereo unspecified)
  A = 86; B = 95; C = -8; D = 101
Cn1c(=O)c(N2CCC(C(=O)NCCc3ccc(S(N)(=O)=O)cc3)CC2)nc2ccccc21
  A = /; B = /; C = -33; D = 108
Cc1oc(-c2cccc(Cl)c2)nc1CN1CCCC(C(=O)N2CCN(c3ccc(F)cc3)CC2)C1 (stereo unspecified)
  A = 86; B = 90; C = 7; D = 106
CC(=O)Nc1ccc(C)cc1-c1nnc(SCC(=O)Nc2ccc(C)cc2C)[nH]c1=O
  A = /; B = /; C = -27; D = 102
Cc1ccc(C)c(N2C(=O)N(Cc3cc(=O)n4ccccc4n3)c3ccccc3S2(=O)=O)c1
  A = 73; B = 92; C = /; D = 104
c1ccc2[nH]c(CSc3nnnn3C3CCCCC3)nc2c1
  A = 108; B = 74; C = 1; D = 107
